Screening data: PubChem BioAssay, ICCB-Longwood Screening Facility, Harvard Medical School
RVFV N-RNA inh: inhibitors of RVFV nucleoprotein–RNA binding, primary screen, biochemical, fluorescence polarization; 20,000 compounds, 0.1% hits; RVFV N-RNA binding; stronger effect = lower value; % bound, % (test concentration not listed);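 active = between 0 and 58% in either replicate with normal brightness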;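 note: 100 nL library stock added to about 12 µL; 100% = protein and probe without compound and 0% = probe alone; numbers are from one replicate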
Target sequence (P21700 whole entry, looked up): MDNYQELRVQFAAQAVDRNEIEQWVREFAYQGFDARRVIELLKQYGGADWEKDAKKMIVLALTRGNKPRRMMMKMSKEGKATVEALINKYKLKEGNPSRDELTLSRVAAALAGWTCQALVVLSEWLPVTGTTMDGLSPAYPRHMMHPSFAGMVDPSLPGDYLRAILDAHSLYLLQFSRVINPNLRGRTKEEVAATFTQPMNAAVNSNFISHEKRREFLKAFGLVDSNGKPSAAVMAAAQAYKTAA
Numbers without * were called inactive; & = joins results of further samples.

Molecule	RVFV N-RNA inh
C=CCNC(=S)NNc1nc(NCC)nc(NCC)n1	86
COC(=O)c1cc(C)nc(Sc2n[nH]c(-c3cc(Cl)cc(Cl)c3)n2)n1	93
CC(C)CNC(=O)Nc1ccccc1F	95
CCCN1C(=O)c2ccc(C(=O)NC3=NCCS3)cc2C1=O	109
N#Cc1cnn(-c2ccccc2)c1/N=C/N1CCCC1	98
Cc1cc(C(=O)NNc2c(Cl)cccc2Cl)no1	92
O=C1C=CC(=O)C(c2ccc(C(=O)O)cc2)=C1	52*
COC(=O)c1ccc(COc2c(-c3ccco3)oc3ccccc3c2=O)cc1	96
O=C(OCc1ccccc1)Oc1cncc(C(=O)ON2C(=O)CCC2=O)c1	102
CCCCCCCCCCCCCCSCC(=O)O	90
Cc1nc2c(ncn2-c2ccccc2)c(=O)n1NC(=O)CN1CCN(C)CC1	98
CCc1ccccc1N1CCN(C(=O)c2ccc(Cl)cc2)CC1	92
O=c1[nH]c(-c2ccccc2)cs1	96
Cc1nnc2ccc(-c3ccc(NC(=O)c4ccc5c(c4)OCO5)cc3)nn12	88
Cc1cc(C)c2c(CC(=O)N3CCCC3)coc2c1	101
COc1ccccc1NC(=S)N1CCN(C2CCCCC2)CC1	98
Cc1cc(-c2nnc(-c3ccc(C(F)(F)F)cn3)o2)no1	98
O=S(=O)(NCCCCN1CCN(c2ncccc2C(F)(F)F)CC1)c1ccc(Cl)cc1	98
CC(C)C1=NN2C(=N)CC(=O)N=C2S1	97
CCOC(=O)c1cnc2c(C(F)(F)F)cccc2c1N1CCOCC1	97
COc1ccc(-c2nnc(NC(=O)Cc3ccccc3)o2)cc1	90
O=C(NCCc1cn2c(n1)SCC2)NC1CCCCC1	97
NNC(=O)c1cc(-c2ccccc2)n[nH]1	88
COc1ccc(NC(=O)c2cnc(SCC(=O)Nc3cc(C)on3)n(C)c2=O)cc1	104
CCCCCn1c(SCC(=O)N2CCC(C(F)(F)F)CC2)n[nH]c1=O	99
O=C(CCN1C(=O)/C(=C\c2ccco2)SC1=S)NC1CCCC1	95
O=c1[nH]ccc2c(O)cccc12	101
O=C1c2ccccc2C(=O)N1Cc1ccccn1	92
Cc1nc(-c2ccc(-c3cccs3)s2)sc1-c1ccnn1C(=O)c1cccs1	95
CCCCN1C[C@H](O)[C@@H](O)[C@H](O)[C@H]1CO	103
O=C(O)c1ccc(N/C=C/C(=O)c2ccccc2)cc1	102
CCOC(=O)/C(C#N)=N/Nc1ccsc1C(=O)OC	95
CC(C)(C)n1ncc2c(=O)n(NC(=O)Cc3ccccc3)cnc21	98
Cc1cc(=O)[nH]c(SCC(=O)C2CC2)n1	87
c1ccc(CN2CCN(Cc3ccc4c(c3)OCCO4)CC2)cc1	97
O=C(NNc1ccc(Cl)cc1)C1CCC1	93
CCN(CC)Cn1c(=O)sc2ccccc21	102
COC(=O)c1ccc(OC(=O)c2ccccc2)cc1	89
CC(C)c1ccc(-n2nnc3ccccc3c2=O)cc1	98
O=S(=O)(c1ccc(-n2cccn2)cc1)N(Cc1ccccn1)Cc1ccccn1	97
COCCNC(=S)N1CCN(S(C)(=O)=O)CC1	88
O=C(CCCOc1ccccc1)Nn1cnnc1	93
O=C(c1ccc2nc(N3C(=O)c4ccccc4C3=O)sc2c1)N1CCOCC1	104
CCN1CCN(C(=O)CN(c2cccc(C(F)(F)F)c2)S(=O)(=O)c2ccc(C)cc2)CC1	99
CCOP(=S)(NC)OCC	88
CN1Cc2sccc2C(c2ccc(O)c(O)c2)C1 (configuration not stated)	99
Cn1cccc1Cc1nnc(SCC(=O)NO)n1-c1ccc(OC(F)(F)F)cc1	96
Cc1cc(NC(=O)c2ccc(S(=O)(=O)N3CCc4ccccc43)cc2)no1	90
S=c1[nH]nc(-c2c(-c3ccccc3)c(-c3ccccc3)nn3nnnc23)o1	96
CC(C)COc1ccc(C(=O)N(C)Cc2ccccc2)cc1	92

Remaining list, next part
Molecule	RVFV N-RNA inh
C[C@H](Cc1ccc2c(c1)OC(C(=O)O)(C(=O)O)O2)NC[C@H](O)c1cccc(Cl)c1	95
O=P(c1ccccc1)(c1ccccc1)C1CCCO1 (configuration not stated)	92
COC(=O)c1sccc1-c1ccc(/C=N/OC(=O)c2cccs2)o1	97
O=C(COc1ccc(S(=O)(=O)NC2CCCC2)cc1)N1CCCCC1	98
O=C(OCc1ccc(Cl)c(Cl)c1)c1ccccn1	92
CCSc1nnc(CSc2nc(C)cc(C)n2)n1-c1ccccc1	91
CCCCCNc1nc2ccccc2nc1NS(=O)(=O)c1cccs1	99
O=C(NC(=S)NCc1ccccc1)C1CCCC1	92
COC(OC)c1ccc(C#N)c(SCC(=O)c2ccc(Cl)cc2)n1	97
CCn1c(=O)n(CC)c2cc(NC=O)c(Br)cc21	100
Cc1nnsc1C(=O)NNc1ccc(C(C)C)cc1	95
OCCN(Cc1ccccc1)Cc1cccc(C(F)(F)F)c1	101
N#CC(C#N)=CNCc1cccs1	93
O=C(NCC(O)c1ccccc1)c1ccc(Cl)cc1 (configuration not stated)	88
CC1(C)CC(=O)C=C(NCCCNC2CCCCC2)C1	97
CSC1CCCCC1(O)CSc1nc2c(cc1C#N)CCCC2 (configuration not stated)	94
Cc1ccc(-c2nnc(NC(=O)CCS(=O)(=O)c3ccc(F)cc3)o2)c(C)c1	95
Cc1cc(Br)cc(Br)c1	88
CCN(C1CCS(=O)(=O)C1)S(=O)(=O)c1ccccc1 (configuration not stated)	95
NC(=S)CCN1C(=O)c2ccccc2C1=O	97
O=C(O/N=C1\Cc2ccccc2C1=O)c1cccs1	95
CCC(=O)Nc1ccc(C(=O)N2CCCCC2C)cc1 (configuration not stated)	103
CCCCN1Cc2c(n(CC(=O)c3ccccc3)c3cc(-c4ccccc4)nn3c2=O)C1=O	95
FC(F)(F)c1cccc(-n2cncn2)n1	103
Cc1nn(-c2ccccc2)c(OC(=O)C(C)C)c1S(=O)(=O)c1ccccc1	107

Part of the list above, with each value named:
> Cc1nnsc1C(=O)NNc1ccc(C(C)C)cc1
- RVFV N-RNA inh = 95
> OCCN(Cc1ccccc1)Cc1cccc(C(F)(F)F)c1
- RVFV N-RNA inh = 101
> N#CC(C#N)=CNCc1cccs1
- RVFV N-RNA inh = 93
> O=C(NCC(O)c1ccccc1)c1ccc(Cl)cc1 (configuration not stated)
- RVFV N-RNA inh = 88

Remaining list, next part.
Molecule	RVFV N-RNA inh
Cc1nc2ccccc2c(=O)n1-c1cccc(NC(=O)C(C)C)c1	80
Cc1noc2[nH]cnc(=S)c12	91
COc1ccc2c(c1)c(CC(=O)O)c(C)n2Cc1ccc(Cl)cc1	98
Nc1nc(-c2cccnc2)nn1C(=O)CCc1ccccc1	109
O=C1CCC(=O)N1CCSC(=S)N1CCCC1	88
COc1cc(C(O)C(=O)O)ccc1O (configuration not stated)	90
CS(=O)(=O)Nc1ccc2c(c1)CCC2	95
CC1CCCCN1Cc1c(O)ccc2c(=O)c(-c3ccccc3)coc12 (configuration not stated)	92
CSC(=CC(=O)c1ccco1)SC	92
CC1CCN=C(N)S1 (configuration not stated)	108
N#CC1COc2ccccc2O1 (configuration not stated)	95
CCSc1nnc2c3ccccc3n(CC)c2n1	96
Nn1c(-c2ccncc2)nncc1=O	90
O=C1CCC(c2ccccc2)N1C(=O)c1ccc(Cl)cc1 (configuration not stated)	93
CN1CCN(/N=C/c2nc(-c3ccc(Cl)cc3)n3ccccc23)CC1	88
NC(=S)COc1cc(Cl)cc(Cl)c1	96
NC12CC3CC(CC(C3)C1)C2	96&108
Cc1ccc(CN2CCN(c3ncccn3)CC2)c(C)c1	102
Clc1ccc(CNc2ccc(N3CCOCC3)cc2)cc1Cl	88
CNC(=O)c1c(I)c(NC(C)=O)c(I)c(C(=O)O)c1I	97
CN1CCC[C@@H]1Cc1c[nH]c2ccc(CCS(=O)(=O)c3ccccc3)cc12	107
Cc1ccc(NNC(=O)c2c(-c3ccccc3)noc2C)cc1C	101
N=C1C(c2ccccc2)=C(O)CN1Cc1ccccc1	92
COCCN1C(=O)c2ccc(C(=O)Nc3ccccc3)cc2C1=O	97
CCc1ccc2c(-c3cccc(Cl)c3)nc(=O)n(CC)c2n1	97
Nn1c(Cc2ccccc2)nnc1SCC(=O)Nc1ccccc1F	92
O=C(Nc1ccccc1)NN1CC(=O)N(c2ccc(Cl)cc2)CC1=O	98
Cc1cc(=O)oc2cc(NC(=S)N3CCCC3)ccc12	98
N#Cc1ccccc1Cn1cc(C(=O)c2cccs2)c2ccccc21	97
Cc1c(Cl)cccc1NC(=O)CCn1cnnn1	94
CNC1(C)[C@H]2CC[C@H](C2)C1(C)C (some centres not stated)	104
COc1ncnc(NS(=O)(=O)c2ccc(N)cc2)c1OC	93
CCOc1ccc(/C(=N/O)C(C)NO)cc1 (configuration not stated)	87
Cc1cccc(Nc2nc(N)nc(C(F)(F)F)n2)c1	98
CC(C)C[C@H](NC(=O)[C@@H](O)[C@H](N)Cc1ccccc1)C(=O)O	107&98
O=C(NCc1ccccc1)C(=S)NC1CCCC1	99
CCN1C(=O)C2C(C1=O)N1C(c3ccccc3)C3C(=O)N(CC)C(=O)C3N1C2c1ccccc1 (configuration not stated)	89
CCOC(=O)COc1ccc2c(=O)cc(-c3ccccc3)oc2c1	102
O=C(NC(=S)Nc1ccc(S(=O)(=O)N2CCOCC2)cc1)c1ccc(Br)o1	96
CCN(CC)C(=O)Cn1c(S(=O)(=O)C(C)C)nc2ccccc21	103
CCN1CCC(NCc2ccccc2Cl)CC1	104
CC(C)(C)NC(=O)[C@H]1CC[C@H]2[C@@H]3CC[C@H]4NC(=O)C=C[C@]4(C)[C@H]3CC[C@]12C	100&98
O=C1CSC(c2cccnc2)N1CCc1ccccn1 (configuration not stated)	93
Cc1c(N=Cc2c(O)n(C)c(=O)c3ccccc23)c(=O)n(-c2ccccc2)n1C	95
CCN(CC)c1ccc(C(=O)N=c2sc3ccccc3n2C)cc1	96
CCOc1ccccc1OCCN[C@H](C)Cc1ccc(OC)c(S(N)(=O)=O)c1	96
COc1ccc(NC(=O)CN2C(=O)CSCC2=O)cc1	93
CC(Sc1nc(N)cc(=O)[nH]1)C(=O)Nc1ccc(S(N)(=O)=O)cc1 (configuration not stated)	90
c1coc(-c2nc(-c3cccs3)no2)c1	91
CCN(CC)C(=O)NCc1ccc(OC)cc1	92

Six structures from above, arranged by molar mass, high to low.
Molecule	RVFV N-RNA inh
CC(C)(C)NC(=O)[C@H]1CC[C@H]2[C@@H]3CC[C@H]4NC(=O)C=C[C@]4(C)[C@H]3CC[C@]12C	100&98
CCOC(=O)COc1ccc2c(=O)cc(-c3ccccc3)oc2c1	102
COc1ncnc(NS(=O)(=O)c2ccc(N)cc2)c1OC	93
CC(C)C[C@H](NC(=O)[C@@H](O)[C@H](N)Cc1ccccc1)C(=O)O	107&98
COc1ccc(NC(=O)CN2C(=O)CSCC2=O)cc1	93
Cc1cccc(Nc2nc(N)nc(C(F)(F)F)n2)c1	98

Next entries:
Molecule	RVFV N-RNA inh
COc1ccc(S(=O)(=O)N2CCN(c3cccc4[nH]ccc34)CC2)cc1OC	96
O=C(Cc1cccs1)Nc1ccc(-c2nnc(-c3ccccc3)o2)cc1	94
CC[C@H]1OC(=O)[C@H](C)[C@@H](O[C@H]2C[C@@](C)(OC)[C@@H](O)[C@H](C)O2)[C@H](C)[C@@H](O[C@@H]2O[C@H](C)C[C@H](NC)[C@H]2O)[C@](C)(O)C[C@@H](C)CN(C)[C@H](C)[C@@H](O)[C@]1(C)O	95
N#Cc1ccc(-n2cnc3ccccc3c2=O)cc1C#N	97
COc1cccc(OC)c1C(=O)O/N=C(\N)c1cccc(C)c1	92
CCCN(CCC)C(=O)c1cnn(-c2ccc(C)c(C)c2)c1NC(C)=O	95
CCSc1nc(C)c(CC)c(C)c1C(N)=O	101
CN1CCN(C(=S)C(=O)NCc2ccccc2)CC1	96
CC1(C)Cn2c(nnc2-c2ccccc2)S1	92
Cc1ncsc1CCCl	93
COC(=O)c1cc(-c2ccccc2)sc1NC(=S)Nc1ccn(C)n1	99
CCCCn1cnc2c(c1=O)c1nc3ccccc3nc1n2CC1CCCO1 (configuration not stated)	104
Cn1ccnc1SCc1cc(=O)c(OC(=O)c2ccccc2)co1	93
CC1CC(C(F)F)n2nc(C(=O)O)cc2N1 (configuration not stated)	93
CCCCC(=O)Nc1ccc(C(=O)N2CCN(C)CC2)cc1	107
COc1ccc2nc(-c3ccco3)c(-c3ccco3)nc2c1	91
CCOC(=O)c1[nH]c(I)c(C(=O)OCC)c1C	101
CC(=O)Nc1cccc(NC(=O)c2c[nH]c(=O)n(-c3ccccc3)c2=O)c1	100
CSc1nc2cc(Oc3cccc(Cl)c3Cl)c(Cl)cc2[nH]1	99
COC(=O)/C=C1\SC(=Nc2ccc(OC)cc2)NC1=O	97
CNC(=O)NC1CC(=O)N(c2ccc(OC)cc2)C1 (configuration not stated)	100
O=c1c2c3nc4ccccc4nc3n(C3CCCC3)c2ncn1Cc1ccccc1	93
COC(=O)c1ccc(NC(=O)CSC2=NC(c3ccccc3)CC(=O)N2)cc1 (configuration not stated)	96
CN(CC(=O)Nc1cccnc1)S(=O)(=O)c1ccc(Br)cc1	97
CCCC(=O)Nc1cccc(-c2nc3ccccc3o2)c1	103
COc1cc(O)cc(C(=O)c2ccccc2)c1S(=O)(=O)O	97

Not all compounds are listed. The share of hits here may be higher or lower than overall.
